From PubChem
Mtb H37Rv: Mycobacterium tuberculosis H37Rv growth inhibition, putative kinase inhibitor library, confirmatory dose response (AID 2842) | M. tuberculosis H37Rv growth inhibition; higher % means a stronger effect; some inactives read as strong as hits | inhibition, % at 10 µg/mL; hits with a dose series show IC90 in µg/mL | actives 5.2% (n = 24,000);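 active = confirmed in a dose series; about a fifth of its hits are not listed in these tables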;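 also: bacteria incubated one week before Alamar blue readout; 0% = bacteria only wells and 100% = bacteria with high antibiotic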
The depositor's hits bear a star.

SMILES	Mtb H37Rv
CCOC(=O)c1c(-c2ccc(C)o2)csc1NC(=O)CSc1nnc2sc3ccccc3n12	0%
COc1cccc(-c2cc(C#N)c(-n3cccc3)o2)c1	8%
O=C(O)C1Cc2[nH]cnc2C(c2ccccc2)N1 (stereo not drawn)	-3%
O=C(CSc1ccc2nnc(-c3ccncc3)n2n1)Nc1cccc(F)c1	-8%
COc1ccc2cc(CCNC(=O)c3cccc(Br)c3)c(=O)[nH]c2c1	9%
CCOC(=O)c1nn(-c2ccc(C)cc2)c(=O)c2c(NC(=O)COc3ccc(Cl)cc3)scc12	-3%
CCOC(=O)N1CCN(C(=O)CCCn2c(=S)[nH]c3c([nH]c4ccc(OC)cc43)c2=O)CC1	-6%
N#Cc1c(N)nc(SCC(=O)Nc2ccccc2)c(C#N)c1-c1ccccc1	9%
COc1ccc(-c2nc(NC(=O)c3cc4ccccc4oc3=O)sc2C)cc1	-2%
O=C(NCC1CCCO1)C(=O)Nc1ccc2c(c1)N(S(=O)(=O)c1cccs1)CCC2 (stereo not drawn)	-17%
CCC(C)Sc1nc2c(c(=O)[nH]1)C(c1ccc(N(C)C)cc1)C1=C(CCCC1=O)N2 (stereo not drawn)	2%
COc1ccc(C(=O)Nc2nc(-c3ccc4c(c3)OCCO4)cs2)cc1	21%
COc1cc2c3nnc(-c4ccccc4)c-3cn(Cc3ccc(Cl)cc3)c2cc1OC	13%
Cc1ccccc1NC(=O)C1C(=O)CN(c2ccccc2)C1=O (stereo not drawn)	-6%
Cc1ccc(C)c(NC(=O)CCn2c(=O)oc3ccccc32)c1	-1%
COc1ccc(NC(=O)c2oc3ccccc3c2NC(=O)c2cccc3ccccc23)cc1	-3%
Cc1ccc(S(=O)(=O)Nc2ccccc2C(=O)Nc2sc3c(c2C#N)CCC3)cc1	4%
O=C(Nc1ccc([N+](=O)[O-])cc1)Nc1nc2c(ccc3ccccc32)s1	-1%
CC(O)CSc1nc2c(c(=O)[nH]c(=O)n2C)n1Cc1ccc(Cl)cc1 (stereo not drawn)	13%
COC(=O)c1ccc(C(=O)NC(=S)Nc2nc3c(s2)CCc2ccccc2-3)cc1	-4%

At a glance, 17 of the compounds above:
SMILES	Mtb H37Rv
O=C(CSc1ccc2nnc(-c3ccncc3)n2n1)Nc1cccc(F)c1	-8%
COc1ccc2cc(CCNC(=O)c3cccc(Br)c3)c(=O)[nH]c2c1	9%
CCOC(=O)c1nn(-c2ccc(C)cc2)c(=O)c2c(NC(=O)COc3ccc(Cl)cc3)scc12	-3%
CCOC(=O)N1CCN(C(=O)CCCn2c(=S)[nH]c3c([nH]c4ccc(OC)cc43)c2=O)CC1	-6%
N#Cc1c(N)nc(SCC(=O)Nc2ccccc2)c(C#N)c1-c1ccccc1	9%
COc1ccc(-c2nc(NC(=O)c3cc4ccccc4oc3=O)sc2C)cc1	-2%
O=C(NCC1CCCO1)C(=O)Nc1ccc2c(c1)N(S(=O)(=O)c1cccs1)CCC2 (stereo not drawn)	-17%
CCC(C)Sc1nc2c(c(=O)[nH]1)C(c1ccc(N(C)C)cc1)C1=C(CCCC1=O)N2 (stereo not drawn)	2%
COc1ccc(C(=O)Nc2nc(-c3ccc4c(c3)OCCO4)cs2)cc1	21%
COc1cc2c3nnc(-c4ccccc4)c-3cn(Cc3ccc(Cl)cc3)c2cc1OC	13%
Cc1ccccc1NC(=O)C1C(=O)CN(c2ccccc2)C1=O (stereo not drawn)	-6%
Cc1ccc(C)c(NC(=O)CCn2c(=O)oc3ccccc32)c1	-1%
COc1ccc(NC(=O)c2oc3ccccc3c2NC(=O)c2cccc3ccccc23)cc1	-3%
Cc1ccc(S(=O)(=O)Nc2ccccc2C(=O)Nc2sc3c(c2C#N)CCC3)cc1	4%
O=C(Nc1ccc([N+](=O)[O-])cc1)Nc1nc2c(ccc3ccccc32)s1	-1%
CC(O)CSc1nc2c(c(=O)[nH]c(=O)n2C)n1Cc1ccc(Cl)cc1 (stereo not drawn)	13%
COC(=O)c1ccc(C(=O)NC(=S)Nc2nc3c(s2)CCc2ccccc2-3)cc1	-4%

Remaining list, next part
SMILES	Mtb H37Rv
COc1ccc2cc(CCNC(=O)c3c(-c4ccccc4Cl)noc3C)c(=O)[nH]c2c1	1%
COc1ccccc1-n1ccn(CC(=O)Nc2ccc(C)cc2Cl)c(=O)c1=O	-14%
COc1cc2c3nnc(-c4ccc(C)c(C)c4)c-3cn(Cc3ccc(C)cc3)c2cc1OC	1.6µg/mL*
Cc1ccc(C)c2[nH]c(=O)c(CCNC(=O)Cc3cccc4ccccc34)cc12	0%
Cc1ccc(S(=O)(=O)NC2CC(=O)N(c3cccc(F)c3)C2)cc1 (stereo not drawn)	11%
Cc1cccc(C(=O)Nc2nnc(-c3ccc(Cl)cc3Cl)s2)c1	6%
O=c1/c(=C/c2cccc([N+](=O)[O-])c2)sc2nc(-c3ccncc3)nn12	0%
Oc1ccc(/C=N\Nc2nccs2)c(O)c1	65%
NC(=O)c1ccsc1NC(=O)c1ccccc1I	19%
CSc1nnc(Cc2cc(=O)[nH]c(=O)[nH]2)n1-c1ccc(Cl)cc1	-6%
Cc1cc(C)nc(SCc2cc(=O)c(OC(=O)c3cccs3)co2)n1	-10%
CCOC(=O)C1CCN(C(=O)c2cc3ccccc3oc2=O)CC1	1%
CCc1ccc(N2C(=O)C(Cl)=C(Nc3ccc(C(=O)N4CCCCC4)cc3)C2=O)cc1	56%
COc1ccc2nc(NC(=O)c3cccc(Cl)c3)sc2c1	9%
CCOc1ccccc1N=C1NC(=O)/C(=C/c2ccc(OCC)c(OC)c2)S1	10%
CC(=O)Nc1cccc(Oc2nnc(Oc3cccc(NC(C)=O)c3)c3ccccc23)c1	6%
COc1ccc(/C(O)=C2\C(=O)C(=O)N(CCCn3ccnc3)C2c2ccncc2)cc1Cl (stereo not drawn)	-8%
CCNS(=O)(=O)c1ccc2c(c1)C(=NO)c1cc(S(=O)(=O)NCC)ccc1-2	3%
CC1=C(C(=O)Nc2ccccc2C)C(c2ccc(Cl)cc2)n2nnnc2N1 (stereo not drawn)	3%
O=C(Nc1c(C(=O)Nc2ccc3c(c2)OCO3)oc2ccccc12)c1ccc(F)c(F)c1	-3%
CN1CCN(c2ccc(-c3cccc(NC(=O)c4ccccc4[N+](=O)[O-])c3)nn2)CC1	0%
CN(C)S(=O)(=O)c1ccc(C(=O)Nc2nc3c(ccc4ccccc43)s2)cc1	13%
Fc1cccc2sc(Nc3nc4ccccc4s3)nc12	60%
O=C(Nc1nc2ccc3ccccc3c2s1)c1ccc(S(=O)(=O)N2CCCc3ccccc32)cc1	12%
O=C1NC2=C(C(=O)N(Cc3ccccc3)C2)C(c2ccccc2)N1 (stereo not drawn)	-15%
Cc1ccccc1CSc1nnc2[nH]c(=O)c(C)c(C)n12	-6%
Cc1ccc(N2C(=O)C3N=NN(CC(=O)Nc4ccc(F)c(Cl)c4)C3C2=O)cc1Cl (stereo not drawn)	1%
Cc1ccc(N2CC(c3nc4ccccc4n3CCOc3cccc(C)c3)CC2=O)cc1 (stereo not drawn)	-1%
Nc1ncnc(N2CCC(Cc3ccccc3)CC2)c1[N+](=O)[O-]	-2%
COc1ccc(C2CC(c3ccc(NS(C)(=O)=O)cc3)=NN2S(C)(=O)=O)cc1OC (stereo not drawn)	-6%
CCN(c1ccccc1)c1ncnc(N)c1[N+](=O)[O-]	3%
COc1cccc2sc(Nc3nc4ccc5sc(C)nc5c4s3)nc12	3%
O=C(NCc1cccnc1)NC1CC(=O)N(c2ccc3c(c2)OCCO3)C1 (stereo not drawn)	-9%
CCCn1c(=S)[nH]c2cc(C(=O)N3CCc4ccccc4C3)ccc2c1=O	9%
O=C(/C=C/c1ccccc1Cl)Nc1nnc(-c2ccc3c(c2)OCCO3)o1	2%
COc1cc(-c2nnc(NC(=O)C3CCCCC3)o2)cc(OC)c1OC	18µg/mL*
Cc1cc(I)ccc1NC(=O)CC1Sc2ccccc2NC1=O (stereo not drawn)	2%
COc1ccc(OC)c(NC(=O)CSc2nnc3[nH]c(=O)c(C)c(C)n23)c1	-15%
CCCCSc1nc2c(c(=O)[nH]1)C(c1ccc(F)cc1)C1=C(CCCC1=O)N2 (stereo not drawn)	2%
O=C(Cc1cc(=O)[nH]c(=O)[nH]1)NCCOCCO	-4%
O=C(Cn1cnc2c(cnn2-c2ccc(F)cc2)c1=O)Nc1ccccc1F	3%
CCOC(=O)CSc1ccc2nnc(-c3ccc(OC)cc3)n2n1	14%
O=C(c1ccc(NC2=C(Cl)C(=O)N(Cc3ccccc3)C2=O)cc1)N1CCCCC1	6.2µg/mL*
COc1cccc(NC(=O)c2cnc(SCc3cccnc3)n(C)c2=O)c1	65%
CSc1cccc2sc(NCc3ccccc3)nc12	5%
Cc1cc2cc(CCNC(=O)c3ccc(C)c([N+](=O)[O-])c3)c(=O)[nH]c2cc1C	4%
C=C(C)Cn1c(SCC(=O)O)nc2c1c(=O)[nH]c(=O)n2C	7%
COc1cc(C(=O)N(C)c2nnc(C34CC5CC(CC(C5)C3)C4)s2)cc(OC)c1OC	67%
CCCNC(=O)CC1Nc2cc(C)c(C)cc2NC1=O (stereo not drawn)	11%
O=C(COc1ccc(Cl)cc1Cl)N1CCN(c2ncnc3c2nnn3Cc2ccccc2)CC1	0%
O=C(NC1CC(=O)N(c2ccc(F)cc2)C1)c1ccc(C(F)(F)F)cc1 (stereo not drawn)	-6%
CCOC(=O)c1oc2ccccc2c1NC(=O)CC(C)C	20%
CC(Nc1n[nH]c(=O)[nH]c1=O)C(=O)N/N=C/c1ccccc1I (stereo not drawn)	-25%
CCc1ccc(C(=O)c2cn(Cc3cccc(F)c3)c3cc(OC)c(OC)cc3c2=O)cc1	-1%
COc1ccc2nc(Nc3nnc(-c4ccc(F)cc4)o3)sc2c1	56%
O=C(Nc1nnc(-c2ccccc2Cl)s1)c1cccc(F)c1	1%
COc1cccc(-c2csc(/C(C#N)=C\Nc3cc(Cl)ccc3OC)n2)c1	8%
Cc1ccc(NC(=O)CN2C(=O)CC(c3ccco3)Sc3ccccc32)cc1 (stereo not drawn)	8%
CCN(CC)S(=O)(=O)c1ccc(C(=O)Nc2nnc(-c3cccc(S(C)(=O)=O)c3)o2)cc1	-7%
COc1ccc(-c2nnc(NC(=O)/C=C/c3ccc(OC)c(OC)c3)s2)cc1	12%
Going on with the list:
SMILES	Mtb H37Rv
O=C(CCN1C(=O)c2ccccc2S1(=O)=O)Nc1ccc(Cl)c(Cl)c1	0%
CCN1C(=O)c2cccc3c(NC(=O)CN4C(=O)CCC4=O)ccc1c23	-5%
CCN1C(=O)CCc2cc(NS(C)(=O)=O)ccc21	1%
COc1cccc(-c2nc(C(N)=O)c3[nH]c(=O)n(-c4ccc(F)cc4)c3n2)c1	-12%
CCC(Sc1nncn1C)C(=O)Nc1nnc(-c2ccc(OC)cc2OC)s1 (stereo not drawn)	26%
Cc1ccc(Cl)cc1NS(=O)(=O)c1cc2c3c(c1)CCN3C(=O)CC2	1%
CC(C)(C)c1ccc(C(=O)NCc2nnc(SCC(=O)NCc3ccco3)o2)cc1	-17%
CCOC(=O)c1nn(-c2ccc(F)cc2)c(=O)c2c(NC(=O)c3cc4ccccc4oc3=O)scc12	6%
Nc1ncnc(Nc2cccc(Cl)c2Cl)c1[N+](=O)[O-]	0%
O=c1c2nnn(-c3ccc(OC(F)(F)F)cc3)c2ncn1Cc1ccc(F)cc1	4%
Cc1c(C)n2c(SCC(=O)N3CCN(c4ccccc4)CC3)nnc2[nH]c1=O	-13%
O=c1c2sc3ccccc3c2[nH]c(=S)n1CCc1c[nH]c2ccccc12	77%
COc1ccccc1C(=O)Nc1nc(-c2ccc3c(c2)OCCO3)cs1	2%
Cc1[nH]c2ccc(N3CCOCC3)cc2c(=O)c1CN1CCCCC1C (stereo not drawn)	-1%
O=C(Nc1nnc(-c2ccco2)o1)c1ccc2c(c1)OCCO2	12µg/mL*
O=C(Nc1nnc(-c2ccccn2)o1)c1ccccc1Oc1ccccc1	80%
C=CCOC(=O)C1=C(C)Nc2[nH]c(=O)[nH]c(=O)c2C1c1ccccc1 (stereo not drawn)	-3%
COc1ccc(NC(=O)c2oc3ccccc3c2NC(=O)c2ccccc2F)cc1OC	-1%
NC(=O)c1ccccc1NC(=O)c1cncc(Br)c1	4%
CCN1CCN(c2nc3c(c(=O)n(C)c(=O)n3C)n2CCSc2nnnn2-c2ccccc2)CC1	-4%
O=C(c1ccc(NS(=O)(=O)c2cccc(Cl)c2)cc1)N1CCCCCC1	5%
CCOc1cccc2sc(Nc3nc4ccc(OC)cc4s3)nc12	3.2µg/mL*
COc1ccc(-c2nnc3ccc(SCc4ccccn4)nn23)cc1OC	-4%
CNC(=O)c1ccsc1NC(=O)c1cc(-c2ccccc2)nc2ccccc12	24%
CC(=O)Nc1cccc(NC(=O)C(=O)Nc2cc3c4c(c2)CCC(=O)N4CCC3)c1	-4%
C=CCn1c(SCCN2CCOCC2)nc2c1c(=O)[nH]c(=O)n2C	3%
COc1cccc(NC(=O)c2ccc(S(=O)(=O)N3CCCCC3)cc2)c1	13%
COc1cccc(C(=O)Nc2cc(=O)n(C)c(=O)n2C)c1	-6%
CCC(=O)NCCc1cc2c(OC)ccc(OC)c2[nH]c1=O	3%
O=C(O)CCCN1C(=O)c2cccc([N+](=O)[O-])c2C1=O	2%
O=C(Oc1ccc2c(=O)c(-c3nc4ccccc4s3)coc2c1)N1CCOCC1	-8%
COc1cc(/C=C2\Oc3cc(O)ccc3C2=O)cc(OC)c1OC	9%
O=c1oc2ccccc2cc1-c1nnc(Nc2cccc(C(F)(F)F)c2)s1	0%
CCC(Sc1ccc(Cl)cc1)C(=O)Nc1nnc(-c2cccc([N+](=O)[O-])c2)s1 (stereo not drawn)	3%
CNC(=O)c1ccsc1NC(=O)c1ccccc1	11%
CCOC(=O)C1=C(C)Nc2nc(SCc3ccccc3)[nH]c(=O)c2C1c1ccc(Cl)cc1 (stereo not drawn)	17%
Cc1ccc(NC(=O)CSc2ccc3nnc(-c4ccc(F)cc4)n3n2)cc1Cl	-4%

The list is partial; count on the stated rates, not on these rows.
